Arbovirus anti = antivirals against arbovirus infection, primary screen, cell-based, full library, 10K replicate subset; arbovirus infection cell-based antiviral screen; inhibition, % at 10 µM; 0.37% of 200,000 active;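 active = inhibition from about 30%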;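 note: bluetongue infection of BSR cells; cell survival read as ATP light after 72 h; 0% = infected wells without compound and 100% = uninfected wells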
Mtb betalactam = beta-lactam sensitization of Mtb H37Rv, H37Rv. M. tuberculosis H37Rv growth with meropenem, percent inhibition; hits of this screen are not shown here. inhibition, % at 25 µM. 0.27% of 330,000 active;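 active = about 74% or more and at least 40 points above the plate without the antibiotic, then above 30% in a dose series; inconclusive = first-round hits that could not be retested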;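 note: growth measured after seven days incubation then overnight dye step; 0% = bacteria only wells and 100% = bacteria with antibiotic; twin plates without the antibiotic show which effects depend on it; some results filed as inactive read as strong as hits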
YopH inh = YopH tyrosine phosphatase inhibitors, primary screen, biochemical, fluorescence Ex485/Em525 | YopH tyrosine phosphatase [Yersinia enterocolitica] | 0.16% of 140,000 active | AID 898, 2007 | inhibition, %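 (about 10 µM by stock and volumes)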;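 active = inhibition of 50% or more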;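 note: controls were vehicle for no effect and minimum signal wells for full effect; inactives centre near -20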
RecA intein inh = Mtb RecA intein splicing inhibitors, primary screen, biochemical, fluorescence, HTS | cell-free RecA intein splicing | inhibition, %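 (about 9 µM by stock and volumes)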 | 0.75% of 290,000 active | AID 2221, 2009; in the data active = inhibition above about 30%; inconclusive = no clear call, values can overlap the other calls;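 note: 0% = vehicle wells and 100% = reference inhibitor control wells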
Target sequence (P9WHJ3 whole entry, looked up): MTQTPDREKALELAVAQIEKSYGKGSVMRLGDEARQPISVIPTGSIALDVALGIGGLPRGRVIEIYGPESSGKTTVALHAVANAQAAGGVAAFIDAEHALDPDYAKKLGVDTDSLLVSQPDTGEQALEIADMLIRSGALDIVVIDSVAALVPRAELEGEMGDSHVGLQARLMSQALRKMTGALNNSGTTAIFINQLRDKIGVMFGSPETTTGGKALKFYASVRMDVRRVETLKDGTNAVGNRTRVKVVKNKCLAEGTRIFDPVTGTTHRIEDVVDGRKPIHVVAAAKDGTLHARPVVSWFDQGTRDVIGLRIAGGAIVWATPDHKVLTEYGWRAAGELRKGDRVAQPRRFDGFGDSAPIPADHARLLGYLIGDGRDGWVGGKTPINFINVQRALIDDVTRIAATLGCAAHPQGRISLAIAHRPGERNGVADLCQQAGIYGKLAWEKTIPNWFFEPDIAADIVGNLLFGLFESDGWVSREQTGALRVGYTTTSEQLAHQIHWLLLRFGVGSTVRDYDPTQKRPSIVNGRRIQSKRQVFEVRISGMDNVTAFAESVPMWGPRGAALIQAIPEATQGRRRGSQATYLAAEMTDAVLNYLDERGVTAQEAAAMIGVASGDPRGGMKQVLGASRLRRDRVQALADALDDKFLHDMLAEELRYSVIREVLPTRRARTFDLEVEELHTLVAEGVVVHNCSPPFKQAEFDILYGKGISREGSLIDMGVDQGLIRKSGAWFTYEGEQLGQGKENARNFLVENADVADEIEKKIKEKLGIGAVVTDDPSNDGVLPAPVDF
Mtb growth = M. tuberculosis H37Rv growth inhibitors, H37Rv strain (AID 1626) | M. tuberculosis H37Rv growth inhibition; higher % means a stronger effect | inhibition, % at 10 µM; hits with a dose series show IC50 in µM | 0.95% of 220,000 active;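 active = confirmed in a dose series; inconclusive = inhibition above 80% but not taken into the dose series; inactive = below 80% or under 30% at every dose of the series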;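 note: bacteria incubated seven days before Alamar blue readout; 0% = bacteria only wells and 100% = bacteria with antibiotic wells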
Arbovirus anti repeat = also measured in Arbovirus anti; calls as there; inhibition, %; measured here: 10K subset replicate screen; many hits read low in the repeat;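 first of two repeat runs on a subset; 0% = infected and 100% = uninfected wells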
* marks the source's active call; other numbers are inactive results; ? = inconclusive; · = no result given; & = joins results of further samples.

SMILES	Arbovirus anti	Mtb betalactam	YopH inh	RecA intein inh	Mtb growth	others
O=C1CCC(C(=O)N2CCCC(N3CCN(c4cccc(C(F)(F)F)c4)CC3)C2)=NN1 (configuration not stated)	·	-4	·	-4.2	·
Cc1nn(S(=O)(=O)N(C)C)c(C)c1CN1C(=O)c2ccccc2C1=O	-4	3	-41	-0.4	-2%
O=C(Cc1cccs1)Nc1ccc(S(=O)(=O)N2CCCC2)cc1	-2	-1	·	-0.9	-1%
CC1CCN(C(=O)c2ccccc2NC(=O)c2cccs2)CC1	·	15	·	1.9	·
CCc1n(CC(O)COCc2ccccc2)c2ccccc2[n+]1C (configuration not stated)	2	2	·	-0.1	7%
COC(=O)c1ccccc1NC(=O)CC(NCc1ccccc1)C(=O)O (configuration not stated)	·	-3	-9	-0.1	-4%
COc1ccc(C(=O)NC(=S)Nc2cccc(NC(=O)c3ccco3)c2)cc1[N+](=O)[O-]	3	4	0	6.1	7%
O=C(NCc1cccnc1)C12CC3CC(CC(Cl)(C3)C1)C2	·	-3	·	4.4	·
CC1(C(=O)CSc2n[nH]c(-c3ccccc3Cl)n2)CCC(=O)O1 (configuration not stated)	1	3	-30	1.2	-1%
Cc1cc2nc(C)c(Cc3ccccc3)c(=O)n2[nH]1	0	-1	-33	2.4	·
Cc1ccc(Cn2c(=N)c(C(=O)NC3CCCC3)cc3c(=O)n4ccccc4nc32)cc1	·	8	·	-0.1	·
Cc1ccsc1/C=N/NC(=O)C1C(=O)NCC1c1ccccc1 (configuration not stated)	·	-4	·	-1.7	-9%
Cc1cc(S(=O)(=O)N2CCOCC2)ccc1OCC(=O)NCC1CCCO1 (configuration not stated)	·	4	·	-1.3	·
Cc1ccc(/C=N/NC(=O)C(=O)N/N=C/c2ccc(C)o2)o1	17	-14	·	-2.1	8%
CCCOc1ccc(N2C(=O)CC(N3CCC(O)(c4cccc(C(F)(F)F)c4)CC3)C2=O)cc1 (configuration not stated)	-2	-10	-41	0.2	7%	Arbovirus anti repeat=4
O=C(COC(=O)C12CC3CC(CC(C3)C1)C2)NCc1ccco1	5	-3	-7	4.1	-4%
CN1CCC(N(C)C(=O)c2ccccc2Nc2ccc(SC(F)F)cc2)CC1	-12	2	-32	-0.1	-7%
COc1cc2nc(C3CCC3)n(NC(=O)C3CCC(OC)CC3)c(=O)c2cc1OC (configuration not stated)	6	-5	-41	-3.5	-2%
CCOC(=O)C1CCN(CC(=O)c2c(C)[nH]c3ccccc23)CC1	-5	-15	0	·	0%
COc1ccc(-c2cc(-c3cccs3)c(C#N)c(SCC(=O)NCc3ccccc3OC)n2)cc1	-18	43	-15	0.6	2%
CCn1c(C)c(C(C)=O)c(N2CCN(c3ccc(F)cc3)CC2)nc1=S	3	-9	-4	1.8	5%
Clc1ccc(CNC2CN3CCC2CC3)cc1 (configuration not stated)	4	-6	-34	3.2	-4%
Cc1cc(OCCn2cncn2)ccc1[N+](=O)[O-]	·	1	·	-1.2	·
CN1CCN(C2=Nc3cc(F)ccc3Cc3ccccc32)CC1	1	7	·	-0.9	-4%&3%
CCNC(=O)/C=C/c1ccccc1[N+](=O)[O-]	7	1	·	-1.9	0%

3 compounds drawn at random from those above:
SMILES	Arbovirus anti	Mtb betalactam	YopH inh	RecA intein inh	Mtb growth	others
CCn1c(C)c(C(C)=O)c(N2CCN(c3ccc(F)cc3)CC2)nc1=S	3	-9	-4	1.8	5%
Cc1cc2nc(C)c(Cc3ccccc3)c(=O)n2[nH]1	0	-1	-33	2.4	·
COc1ccc(C(=O)NC(=S)Nc2cccc(NC(=O)c3ccco3)c2)cc1[N+](=O)[O-]	3	4	0	6.1	7%

(next part)
SMILES	Arbovirus anti	Mtb betalactam	YopH inh	RecA intein inh	Mtb growth	others
O=C(O)CCN(Cc1ccccc1)S(=O)(=O)c1ccccc1Cl	0	·	·	-1.7	3%
C=CCn1c(=O)c2c(C)c(C)sc2n2c(Nc3ccccc3)nnc12	4	7	10	6.4	-3%
Cc1cccc(CSc2nnc([C@@H]3CCCN3C(=O)OC(C)(C)C)o2)c1	·	-1	·	2.2	5%
CC(C)(C)NC(=O)c1cc(Cl)ccc1[N+](=O)[O-]	-1	2	-30	-1.1	-4%
CCOC(=O)C(=NC(C)CC)NNc1ccc(Br)cc1 (configuration not stated)	-33	96	-20	-21	?
C=CCn1c(O)c(N=NC(=S)Nc2ccc(OC)cc2)c2ccccc21	-17	6	-13	8.0	48%
O=S(=O)(Nc1cccc(-c2ccc(N3CCCCCC3)nn2)c1)c1ccc(C(F)(F)F)cc1	·	-3	·	3.6	·
OC(CN1CCOCC1)Cn1c(-c2cccc(Cl)c2)nc2ccccc21 (configuration not stated)	10	1	-1	·	-7%
Oc1c(Br)cc(Br)cc1C=NCc1ccccc1	-2	0	·	-1.9	9%
Cc1ccc2nc(SCC3CCCCO3)[nH]c2c1 (configuration not stated)	·	-12	·	-15	1%
CCOC(=O)CNC(=O)c1ccc(C)cc1	0	3	-4	1.8	2%
O=C1CC(Cc2ccccc2)C(=O)N1CCCn1ccnc1 (configuration not stated)	2	13	-11	1.9	·
CCC(C(=O)OCC(=O)Nc1c(Cl)cc(Cl)cc1Cl)c1ccccc1 (configuration not stated)	14	1	-20	·	1%
Cc1cc(C)c(NC(=O)CCCSc2nnc(N)s2)c(C)c1	-6	3	·	3.4	-9%
O=C(CCCn1c(=S)[nH]c2cc3c(cc2c1=O)OCO3)N1CCN(c2ccccc2)CC1	14	3	-50	-4.5	-5%
CCCCN(C)CCNC(=O)CCn1nc(-c2ccc(C)cc2)ccc1=O	·	-2	·	-1.6	·
CC(C)c1ccc(C2/C(=C(\O)c3ccc4c(c3)OCCO4)C(=O)C(=O)N2CCN2CCOCC2)cc1 (configuration not stated)	·	-7	·	-1.6	·
Cc1ccc(OCC(=O)NC2CCSc3ccccc32)cc1 (configuration not stated)	·	43	·	6.1	·
O=C(O)c1cccc2cc(-c3ccccc3)oc(=O)c12	·	6	·	-2.3	·
Cc1cc(C)c2nc(-n3nc(C)cc3N)cc(C)c2c1	-13	4	·	-1.1	4%
Cc1ccc(/C=C2\Oc3c(ccc(O)c3CN3CCN(C)CC3)C2=O)cc1	4	1	·	-7.7	·
C[C@H]1CN=C(Nc2ccccc2)N1CC1CCCCC1	·	-7	·	-1.0	·
Clc1ccc(CN2CCC(c3ccccc3)CC2)cc1	·	7	·	-2.5	·
O=[N+]([O-])c1ccc(N2CCN(CC(O)COc3ccccc3)CC2)cc1 (configuration not stated)	15	15	·	·	-5%
COc1ccc(C(=O)N=c2c(C#N)cc3c(=O)n4cccc(C)c4nc3n2Cc2ccco2)cc1	-1	·	7	-78	·

Among those listed so far, two have a cyano group.
SMILES	Arbovirus anti	Mtb betalactam	YopH inh	RecA intein inh	Mtb growth	others
COc1ccc(-c2cc(-c3cccs3)c(C#N)c(SCC(=O)NCc3ccccc3OC)n2)cc1	-18	43	-15	0.6	2%
COc1ccc(C(=O)N=c2c(C#N)cc3c(=O)n4cccc(C)c4nc3n2Cc2ccco2)cc1	-1	·	7	-78	·

(listing goes on)
SMILES	Arbovirus anti	Mtb betalactam	YopH inh	RecA intein inh	Mtb growth	others
CC(=O)Nc1ccc(C(=O)N2CCN(C(=O)c3ccco3)CC2)cc1	5	-6	-2	-0.5	-5%
CC(C)C(NC(=O)C1CCC(C(C)(C)C)CC1)C(=O)NCCc1ccc(S(N)(=O)=O)cc1 (configuration not stated)	·	6	·	1.7	·
O=C(CN1C(=O)S/C(=C\C=C\c2ccccc2)C1=O)N1CCOCC1	·	-7	·	16	0%
Cc1nc([N+](=O)[O-])c(NCCCO)n1Cc1ccccc1	1	5	·	1.9	2%
CCCN1Cc2cccc(C(=O)NC(CC(=O)OCC)c3ccc(OCC)c(OC)c3)c2C1=O (configuration not stated)	-1	3	·	1.4	-1%
COc1ccc(-c2cc(NCCc3ccncc3)n3ncnc3n2)cc1	10	8	-23	2.6	-5%	Arbovirus anti repeat=-6
C=CCNS(=O)(=O)c1cc2c3c(c1)CCN3C(=O)CC2	·	-1	·	2.2	·
COc1ccc(OCCSc2nnc(-c3ccoc3C)n2C)cc1	1	-7	-24	1.4	-3%
Cc1ccc(NC(=S)N(CCN2CCOCC2)Cc2ccccc2F)cc1Cl	25	1	·	0.9	6%
CC(=O)Nc1ccc(N2CCC(C)CC2)c([N+](=O)[O-])c1	-7	-5	·	-0.4	12%
COCCNC(=O)/C(C#N)=C/c1c(N2CCN(c3ccccc3)CC2)nc2c(C)cccn2c1=O	·	-3	·	-118	·
NNC(=S)Nc1ccc(Cl)cc1	-4	100	·	-1.1	-1%
Cc1ccnc(NS(=O)(=O)c2ccc(N)cc2)n1	11	-1	-7	0.3	-2%
COc1ccccc1-n1c(CNC(=O)c2ccco2)nnc1SCC(=O)Nc1nccs1	-10	-1	-43	-17	4%	Arbovirus anti repeat=-12
CCc1cc(CNC(=O)C2CCC(=O)N(Cc3ccc(Cl)cc3)C2)on1 (configuration not stated)	·	4	·	1.9	·
N#CCCn1c(Cl)nc2ccccc21	-1	-4	-38	12	-13%
C[C@]1(C(=O)NCCc2c[nH]c3ccccc23)C=C[C@@H](Cc2ccccc2)N1C(=O)c1ccccc1	-19	-2	-14	9.7	-3%
CC(C)CC(=O)c1c[nH]c(C(=O)NCCc2ccccn2)c1	0	4	-28	0.8	0%
CCN(Cc1ccccc1)C(=O)CCc1nnc(CCCc2ccccc2)o1	-1	2	·	-1.2	5%
O=C(CSc1ccc(C(F)(F)F)cn1)Nc1ccccc1	·	-1	·	-0.2	-3%
Cc1ccccc1C(O)(Cc1ccccc1)C1CN2CCC1CC2 (configuration not stated)	-41	-3	-4	-0.4	3%
COc1ccc2[nH]c(-c3ccc(C)cc3)cc(=O)c2c1	-8	0	-17	-8.8	3%
NC(=O)CC[C@H](NC(=O)OCc1ccccc1)C(=O)OCc1ccc(Cl)cc1	-2	3	-26	2.3	0%
COc1ccccc1C1(CC(=O)Nc2nccs2)CCOC(C(C)C)C1 (configuration not stated)	5	-9	-27	-0.6	1%
O=C(Nc1ccccc1N1CCOCC1)C1=COCCO1	·	-9	·	-6.2	·

Among those listed so far, these have bromine:
SMILES	Arbovirus anti	Mtb betalactam	YopH inh	RecA intein inh	Mtb growth	others
CCOC(=O)C(=NC(C)CC)NNc1ccc(Br)cc1 (configuration not stated)	-33	96	-20	-21	?
Oc1c(Br)cc(Br)cc1C=NCc1ccccc1	-2	0	·	-1.9	9%

The listing picks up, starting two compounds before the break.
SMILES	Arbovirus anti	Mtb betalactam	YopH inh	RecA intein inh	Mtb growth	others
COc1ccccc1C1(CC(=O)Nc2nccs2)CCOC(C(C)C)C1 (configuration not stated)	5	-9	-27	-0.6	1%
O=C(Nc1ccccc1N1CCOCC1)C1=COCCO1	·	-9	·	-6.2	·
COc1ccc(N(C)C(=O)c2ccc3c(Cl)c4c(nc3c2)CCCC4)c(OC)c1	·	1	·	4.1	·
CCCN1C2=NCCCN2c2ccccc21	6	2	7	6.4	-5%
CN=c1scc(-c2ccccc2F)n1/N=C(\C)c1cccnc1	-8	53	·	11	14%
COc1ccc(S(=O)(=O)Nc2cc3c4c(c2)CCN4C(=O)CC3)cc1OC	·	-12	·	-3.1	·
O=C(Nc1ccccc1N1CCOCC1)c1ccc([N+](=O)[O-])cc1	7	9	-34	-0.2	5%
O=S(=O)(NC1CCCCC1N1CCN(c2ccc(F)cc2)CC1)c1ccc(Cl)cc1 (configuration not stated)	·	26	·	6.2	·
Cc1ccccc1NC(C)C(=O)N/N=C/c1c[nH]c2ccccc12 (configuration not stated)	4	-4	·	-0.3	-1%
Cc1ccc(/C(O)=C2\C(=O)C(=O)N(c3cc(C)on3)C2c2cccc(Br)c2)cc1 (configuration not stated)	11	0	-60	2.0	2%
O=C1OCc2cc(NC(=O)C34CC5CC(CC(C5)C3)C4)ccc21	-2	2	-25	-1.2	-14%
CCC(C)N=C1CC(C)(C)CC(=O)/C1=C(/O)Cc1ccccc1 (configuration not stated)	1	-2	-17	1.1	4%
C/C(=N\NC(=O)c1cccc(S(=O)(=O)Nc2ccccc2Cl)c1)c1ccco1	-6	-5	-19	1.2	-9%
FC(F)(F)c1ccc2c3n(nc2c1)CCN=C3c1ccc(Cl)cc1	·	0	·	-1.4	·
CC(C)CCN1CC(C(=O)NCCC2=CCCCC2)CC1=O (configuration not stated)	3	6	-8	-1.6	-5%
COC(=O)c1ccc(CC(=O)c2nc3ccccc3s2)cc1	-3	1	-17	3.4	-4%
CCn1cc(C(=O)Nc2cccc(C)c2)c(=O)c2ccc(C)nc21	5	-3	·	-2.4	3%
Cc1ccc(C2CC(=O)NC(SCCC(C)C)=C2C#N)cc1 (configuration not stated)	3	8	-39	0.7	7%	Arbovirus anti repeat=3

Some of the compounds tested (hit frequency here may not be typical).
